CSC inhib: cancer stem cell inhibition; inhibition, % at 7.5 µM; cancer stem cell-like cells viability, luminescence; hit rate 1.1% among 300,000;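 active = mean at 75% or more and at least half the replicates too; tested in HMLE shEcad cells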;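 note: 0% = median of negative and 100% = median of positive control wells; the first replicate is given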
Rce1 inhib: inhibitors of yeast Ras-converting enzyme; yeast membranes, quenched prenylated peptide cleavage fluorescence; hit rate 0.27% among 290,000; AID 2563; calls only;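 active = fall in fluorescence gain of 50% or more versus controls, with final raw signal at or below 3038400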;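 note: plate controls were neutral control wells for no effect and wells lacking membranes for full effect; tested at 10 µM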
Target sequence (Q03530 whole entry, looked up): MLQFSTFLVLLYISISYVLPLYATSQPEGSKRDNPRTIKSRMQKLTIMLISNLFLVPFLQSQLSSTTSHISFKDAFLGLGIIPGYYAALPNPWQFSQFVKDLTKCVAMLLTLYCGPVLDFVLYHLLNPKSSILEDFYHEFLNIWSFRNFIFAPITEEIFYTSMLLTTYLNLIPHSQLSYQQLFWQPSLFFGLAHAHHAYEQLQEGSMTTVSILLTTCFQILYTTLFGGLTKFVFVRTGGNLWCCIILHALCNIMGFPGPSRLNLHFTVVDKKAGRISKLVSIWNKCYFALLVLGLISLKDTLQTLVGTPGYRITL
MT1-MMP act inh: inhibitors of human MT1-MMP activation; hit rate 0.061% among 360,000; HT1080 RFP-PRO-GFP cells, GFP/RFP ratio fluorescence, overnight; percent of plate control window, DMSO zero; GFP/RFP ratio change, % at 20 µM; P50281;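 active = GFP/RFP ratio change of at least 30% with cell ATP level not reduced by more than half and red fluorescence within 50% of control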; note: strong numbers were not always called active
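Test system: HT1080 cells expressing an RFP-PRO-GFP fluorescent reporter construct / Compound dosing: single-point 20 µM compound, 1% DMSO / Schedule: cells overnight before dosing, compound overnight, 37 °C, 5% CO2 / Evaluation: GFP/RFP fluorescence ratio / Control set: DMSO and RFP-L50D-GFP cell wells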
UUG fidelity: yeast start codon fidelity modulation; activity score, % at 18.7 µM; hit rate 0.13% among 350,000; AID 602363; S. cerevisiae UUG-firefly luciferase reporter, luminescence/redox ratio;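 active = replicate mean at a twofold rise or more, about +100% in these data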;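 note: firefly luciferase made from a UUG start codon reports start codon fidelity; reporter light over untreated wells divided by growth signal over untreated wells; some hits fall short of that in this replicate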
PABP FP inh: blocks human PABP binding to poly(A) RNA; inhibition, % at 35 µM; P11940; hit rate 1% among 290,000; AID 2014; fluorescence polarization;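 active = 50% or more with normal probe brightness, or confirmed in later tests; about a fifth of its hits are not listed in these tables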;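 note: calls also rest on retests at 20 µM and on dose response follow-up; controls were probe without protein and protein plus probe with vehicle; some compounds called inactive have numbers as strong as hits; many hits fall short of the cut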
Target sequence (P11940 whole entry, looked up): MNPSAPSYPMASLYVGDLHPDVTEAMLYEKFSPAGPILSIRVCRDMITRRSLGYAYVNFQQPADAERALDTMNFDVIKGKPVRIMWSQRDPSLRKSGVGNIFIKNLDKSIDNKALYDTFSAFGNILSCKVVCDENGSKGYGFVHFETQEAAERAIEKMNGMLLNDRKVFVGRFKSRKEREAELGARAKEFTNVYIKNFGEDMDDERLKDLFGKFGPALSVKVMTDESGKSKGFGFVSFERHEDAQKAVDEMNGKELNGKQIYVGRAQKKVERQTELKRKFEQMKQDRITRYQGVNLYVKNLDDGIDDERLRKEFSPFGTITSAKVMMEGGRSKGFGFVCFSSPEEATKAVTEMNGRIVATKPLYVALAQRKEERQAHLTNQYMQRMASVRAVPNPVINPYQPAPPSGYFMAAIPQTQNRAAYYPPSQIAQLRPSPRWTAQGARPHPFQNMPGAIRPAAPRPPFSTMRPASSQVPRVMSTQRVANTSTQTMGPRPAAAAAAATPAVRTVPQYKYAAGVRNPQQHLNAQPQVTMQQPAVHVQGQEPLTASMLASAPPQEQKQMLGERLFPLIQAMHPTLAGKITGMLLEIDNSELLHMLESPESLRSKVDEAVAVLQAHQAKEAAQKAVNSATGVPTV
Env fusion inh: inhibitors of HIV Env-mediated cell fusion. HeLa-JRFL Env/CEM21 cell fusion, luciferase. inhibition, % at 12.3 µM. hit rate 1.1% among 360,000. AID 651610;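 active = mean replicate inhibition score of at least 50 and every replicate individually at or above 50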;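 note: 0% = plate neutral controls and 100% = maraviroc near 300 nM; one replicate is shown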
eIF4H FP inh: inhibitors of RNA binding by human eIF4H. Q15056. AID 2012. eIF4H fluorescence polarization binding assay. hit rate 0.94% among 290,000. inhibition, % at 35 µM;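 active = 50% or more with normal probe brightness, or confirmed in later tests; about a fifth of its hits are not listed in these tables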;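 note: calls also rest on retests at 20 µM and on dose response follow-up; 0% = protein and probe with vehicle and 100% = probe without protein; strong numbers were not always called active; many hits fall short of the cut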
MT1-MMP act inh RFP: recorded beside MT1-MMP act inh, whose call it bears; RFP signal change, %; measured here: RFP expression control read;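 0 = vehicle wells; hits needed this value within 50% of zero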
* hit, by the source's call; i = inactive; . = no result given.

Start of the data: the first five compounds (preview)
SMILES | CSC inhib | Rce1 inhib | MT1-MMP act inh | MT1-MMP act inh RFP | UUG fidelity | PABP FP inh | Env fusion inh | eIF4H FP inh
COc1ccc(NC(=O)N(Cc2cccs2)Cc2cc3cc4c(cc3[nH]c2=O)OCO4)cc1 | -17 | i | . | . | . | -4 | . | -8
CC(=O)c1ccc(OCC(=O)N2CCN(S(=O)(=O)c3ccc(C)cc3C)CC2)cc1 | 0 | i | -1 | -5 | 10 | -1 | . | -1
Cc1c(Cl)ccc(S(=O)(=O)NCCCn2ccnc2)c1Cl | 33 | i | 4 | -4 | -22 | 1 | 15 | -4
CCCOc1cccc(C(=O)O)c1 | -3 | i | -5 | 2 | -11 | -2 | 53 | -8
Fc1ccc(/C=N/N2CCOCC2)c(F)c1 | 11 | i | -1 | 3 | . | 46 | 6 | -2

The whole of this part, from the first entry:
SMILES | CSC inhib | Rce1 inhib | MT1-MMP act inh | MT1-MMP act inh RFP | UUG fidelity | PABP FP inh | Env fusion inh | eIF4H FP inh
COc1ccc(NC(=O)N(Cc2cccs2)Cc2cc3cc4c(cc3[nH]c2=O)OCO4)cc1 | -17 | i | . | . | . | -4 | . | -8
CC(=O)c1ccc(OCC(=O)N2CCN(S(=O)(=O)c3ccc(C)cc3C)CC2)cc1 | 0 | i | -1 | -5 | 10 | -1 | . | -1
Cc1c(Cl)ccc(S(=O)(=O)NCCCn2ccnc2)c1Cl | 33 | i | 4 | -4 | -22 | 1 | 15 | -4
CCCOc1cccc(C(=O)O)c1 | -3 | i | -5 | 2 | -11 | -2 | 53 | -8
Fc1ccc(/C=N/N2CCOCC2)c(F)c1 | 11 | i | -1 | 3 | . | 46 | 6 | -2
Cc1ccc(C(=O)NCC(=O)OCC(=O)c2ccc(Br)s2)cc1 | -11 | i | 2 | 3 | -9 | . | 14 | .
CCOC(=O)c1ccccc1NC(=O)COC(=O)CN1C(=O)NC2(CCCC2)C1=O | -8 | i | -1 | 2 | -35 | -2 | 38 | -5
CCCC(=O)Nc1c2c(nn1-c1ccc(C)cc1)CS(=O)(=O)C2 | -17 | i | -3 | 4 | 2 | 8 | 11 | 11
Cn1c(=N)c(S(=O)(=O)c2ccccc2)cc2c(=O)n3ccccc3nc21 | -4 | . | 1 | -4 | -5 | 5 | . | 8
COc1ccc(C2C3=C(CC(C)(C)CC3=O)Nc3c2c(=O)[nH]c2nc(C)nn32)cc1 (stereo unspecified) | -4 | . | -2 | 1 | -16 | 8 | -21 | -10
Cn1c2c(c(=O)[nH]c1=O)C(c1ccc(O)cc1)C1=C(N2)c2ccccc2C1=O (stereo unspecified) | 9 | i | -9 | -6 | -15 | -6 | -3 | 3
O=C(NC1CC2CCCC(C1)N2C(=S)Nc1ccc(Cl)cc1)C1CC1 (stereo unspecified) | -1 | i | 1 | 1 | -27 | -2 | -8 | 40
NCCCC[C@H]1CN=C(N)N1CC1CCCCC1 | 12 | i | -7 | 0 | 13 | . | 12 | .
CCOc1ccc(-c2ccc3nnc(SCC(=O)NCC4CCCO4)n3n2)cc1 (stereo unspecified) | -13 | i | 0 | -1 | -16 | . | -25 | .
O=[N+]([O-])c1cccc(CP(=O)(c2ccccc2)c2ccccc2)c1 | -2 | . | -2 | -3 | -22 | . | -17 | .
Cc1c(C(=O)Nc2ccc3nc(N4CCOCC4)sc3c2)oc2ccccc12 | 66 | . | 3 | -6 | -18 | . | . | .
COC(=O)c1onc(C(=O)c2ccccc2)c1C(=O)OC | -6 | i | 2 | 3 | 6 | -4 | -83 | -1
Cc1cc(CN(Nc2ccccc2)c2ccccc2)cc(C)n1 | . | . | 4 | -3 | -30 | . | -28 | .
CC(Sc1nnc2ccccn12)C(=O)Nc1ccc2c(c1)OCO2 (stereo unspecified) | -10 | i | 2 | 6 | -18 | -7 | 18 | 9
O=[N+]([O-])c1ccc(NS(=O)(=O)c2ccccc2)c(Cl)c1 | . | . | 8 | -22 | -11 | . | 16 | .
COc1cc(CC(=O)OCC(=O)NCc2ccco2)cc(OC)c1OC | -2 | . | 3 | 8 | -12 | . | . | .
Cc1cc(=O)oc2cc(OCCCN3C(=O)c4ccccc4C3=O)ccc12 | 9 | i | 1 | 2 | -8 | -7 | -22 | 12
CC1(C)N([O-])C(c2cccs2)=C[N+]1=O | -7 | i | 3 | 0 | -12 | 2 | -34 | 2
O=S(=O)(c1ccccc1)N1CCN(CC2CC3C=CC2C3)CC1 (stereo unspecified) | 1 | i | -1 | 3 | . | 4 | 3 | 1
CCN(CC)CCOc1c(C)cccc1Cl | 26 | i | -2 | 1 | 6 | -8 | 1 | 9

Three compounds out of the list, sorted by molecular weight, rising.
SMILES | CSC inhib | Rce1 inhib | MT1-MMP act inh | MT1-MMP act inh RFP | UUG fidelity | PABP FP inh | Env fusion inh | eIF4H FP inh
CC1(C)N([O-])C(c2cccs2)=C[N+]1=O | -7 | i | 3 | 0 | -12 | 2 | -34 | 2
CCCC(=O)Nc1c2c(nn1-c1ccc(C)cc1)CS(=O)(=O)C2 | -17 | i | -3 | 4 | 2 | 8 | 11 | 11
COc1ccc(NC(=O)N(Cc2cccs2)Cc2cc3cc4c(cc3[nH]c2=O)OCO4)cc1 | -17 | i | . | . | . | -4 | . | -8

(list continues)
SMILES | CSC inhib | Rce1 inhib | MT1-MMP act inh | MT1-MMP act inh RFP | UUG fidelity | PABP FP inh | Env fusion inh | eIF4H FP inh
CCCc1cc(=O)oc2cc(C)cc(OCC(=O)NCCCN3CCOCC3)c12 | -26 | i | 2 | 3 | -19 | 6 | -1 | -9
COc1ccc(-n2nnnc2SCC(=O)NC(=O)Nc2ccc3c(c2)OCCO3)cc1 | 4 | . | 4 | 0 | -2 | -4 | . | -15
COc1cc(-c2nnc(SCC(=O)N3c4ccccc4Sc4ccccc43)o2)cc(OC)c1OC | 65 | i | 6 | -11 | -6 | 4 | . | 0
CCc1nc(N2CCN(CC(=O)NCC3CCCO3)CC2)c(C#N)c2c1COC(C)(C)C2 (stereo unspecified) | -10 | i | -3 | -6 | -8 | 23 | 4 | 15
C/C=C(\C)CN1CCC(Oc2cccc(C(=O)NCc3ccccn3)c2)CC1 | 3 | i | -1 | 1 | -17 | -5 | -3 | 1
O=C1CN(C(=O)CSc2nnc(Nc3ccccc3)s2)c2ccccc2N1 | -10 | i | 1 | 3 | -7 | 4 | . | -3
CC(C)CNc1nc(=S)nc(N(C)C)[nH]1 | -14 | i | 0 | 1 | -27 | -3 | . | -12
CC(=NNC(=O)c1cccc(S(=O)(=O)N2CCOCC2)c1)c1ccccc1 | -19 | . | 0 | 1 | -21 | . | . | .
C[n+]1cccc(C(=O)O)c1 | . | . | 5 | 7 | -7 | . | -26 | .
O=C(COc1ccc2c3c(c(=O)oc2c1)CCC3)NCCCN1CCOCC1 | -8 | i | 4 | 4 | -3 | 2 | -3 | 20
c1ccc(-c2nc(N3CCN(c4ccccc4)CC3)nc(-n3ccnc3)n2)cc1 | 37 | i | -11 | -10 | 4 | -4 | -62 | -2
COC(=O)C1=CO[C@@H](O[C@@H]2O[C@H](CO)[C@@H](O)[C@H](O)[C@H]2O)[C@H]2[C@@H]1C(=O)C[C@@H]2C | -2 | . | 0 | 4 | -19 | . | 1 | .
CCCCOc1ccc(C(=O)NN2CCN(C)CC2)cc1 | -6 | i | 6 | 4 | -11 | 0 | -184 | 9
Cc1sc2c(=O)n3c(nc2c1C(=O)NC1CCCCC1)CCCCC3 | -3 | i | 2 | -3 | -6 | 4 | . | 7
O=C(CN1C(=O)COc2ccccc21)NCCC1=CCCCC1 | 13 | i | 6 | 3 | -1 | 9 | . | -20
CC(=O)N/C(=C\c1ccc(C)o1)C(=O)NCc1ccccc1 | -3 | i | -8 | 0 | -3 | 2 | -2 | -1
O=C(CSc1nnc(-c2ccccc2F)o1)NC(=O)Cc1ccccc1 | . | . | 2 | 1 | -15 | . | -8 | .
Cc1ccccc1Nc1nnc(SCc2cc([N+](=O)[O-])cc3c2OCOC3)s1 | 14 | i | -2 | -11 | . | 12 | . | 3
Cc1cccc(C(=O)OCC(=O)Nc2sc3c(c2C#N)CCC3)c1 | 0 | i | -2 | 4 | -16 | 13 | -39 | 25
CC(C)(C)c1ccc(NNC(=O)C2CCC2)cc1 | 27 | i | 2 | 0 | 0 | 14 | 13 | -6
COC(=O)c1cnn2c(C(F)(F)F)cc(-c3ccco3)nc12 | -7 | i | -17 | -5 | -14 | 24 | 22 | 0
CCN(CC)CCCNC(=S)N(Cc1cccnc1)Cc1cc2cccc(C)c2[nH]c1=O | -9 | i | -4 | -1 | . | -3 | 10 | -7
CNc1nc(Nc2ccc([N+](=O)[O-])cc2)nc(OCC(F)(F)F)n1 | -1 | i | -1 | -3 | -14 | 3 | 13 | 6
COc1ccc([C@@H]2C[C@@H](c3ccccc3)Oc3cc(OC)cc(OC)c32)cc1 | . | i | -2 | -1 | -12 | -1 | -9 | -4
CCOCCCNC(=O)c1cc(Cl)c(NC(=O)C2=C(C)OCCS2)cc1OC | 4 | i | 2 | 1 | -6 | -1 | -11 | 4
The list continues.
SMILES | CSC inhib | Rce1 inhib | MT1-MMP act inh | MT1-MMP act inh RFP | UUG fidelity | PABP FP inh | Env fusion inh | eIF4H FP inh
Cc1cc(NC(=O)CCC(=O)N(Cc2cccs2)C(C(=O)NC2CCCC2)c2ccccc2)no1 (stereo unspecified) | -9 | i | -7 | -7 | -2 | 11 | . | 16
O=C1CCCN1CCCNS(=O)(=O)c1cccc(F)c1 | 4 | i | 4 | 4 | -17 | -5 | -13 | -4
Cc1cc(C)nc(N2CCCC(C(=O)NCc3ccc4c(c3)OCO4)C2)n1 (stereo unspecified) | 7 | i | -1 | 2 | . | 0 | 9 | 8
Cc1[nH]nc(N)c1-c1ccc(Cl)cc1 | -12 | i | -7 | -2 | . | 38 | -6 | 4
N/C(=N\OC(=O)COc1ccccc1)c1cccnc1 | 2 | i | -2 | -1 | . | . | -10 | .
COCCCN1C(=O)c2ccc(C(=O)Nc3ccc(C)cc3C)cc2C1=O | -5 | i | 4 | 0 | -11 | -7 | -8 | 0
CCCNC(=O)C(=O)Nc1cc2c3c(c1)CCC(=O)N3CCC2 | -10 | i | 3 | 3 | -11 | 7 | -3 | -14
COc1cccc(NC(=O)c2cccc(N3C(=O)C4C5C=CC(C5)C4C3=O)c2)c1 (stereo unspecified) | -4 | i | 7 | -12 | 3 | . | -1 | .

Bioassay records: PubChem BioAssay, several laboratories

Rows were taken by chance; 2.9% or so of the library scored in one or more.
